Screening results deposited in PubChem by several laboratories.
Sa RN4220 lethal: kills Staphylococcus aureus RN4220. inhibition, % (concentration not given with the values). AID 1259311. 330,000 tested, 0.33% active. S. aureus RN4220 growth, OD600, 16 h;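 active means z-score of -3 or lower and OD600 up to 0.18 on both plates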;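 further: plate controls were untreated cells for no effect and reference antibiotic for full effect; stock transfer was 100 nL into about 80 µL; one replicate is shown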
Bead autofluor: compound fluorescence in toxin protease inhibitor counterscreen; compound autofluorescence counterscreen, microsphere flow cytometry; hits give high values; fluorescence intensity (concentration not given with the values); 360,000 tested, 3.1% active;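 active means at least 3 SD above the mean of all compounds, about 16000 in these data; inconclusive means too few beads counted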;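 further: 100 nL of 1 mM stock went into each well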
PrP UTR inh: inhibition of PrP 5' UTR reporter expression; 340,000 tested, 0.35% active; inhibition, % (concentration not given with the values); AID 488862; cell-based PrP 5' UTR mRNA reporter, plate reader;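 active means every replicate at 50% or more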;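 further: 0 = median of the neutral control wells; tested in H4 reporter cells; numbers are from one replicate; inactives centre near -14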
Sa ugtP lethal: kills S. aureus RN4220 lacking UgtP; S. aureus RN4220 ugtP deletion, OD600 growth, 16 h; some inactives read as strong as hits; growth inhibition, % (test concentration not listed); 330,000 tested, 0.54% active;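 active means z-score under -3 and OD600 up to 0.15 on both plates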;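 further: plate controls were untreated wells for no effect and antibiotic for full effect; wells of about 80 µL received 100 nL stock; the first replicate is given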
Mtb hypoxia inh: inhibitors of hypoxia-regulated fluorescent reporter in Mycobacterium tuberculosis. fluorescence inhibition, % (test concentration not listed). 300,000 tested, 0.1% active. AID 1159583. M. tuberculosis hypoxia-regulated fluorescent reporter, fluorescence;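 active means 35 to 45% if threefold the growth effect, above 45% if 1.5-fold the growth effect; inactive means the rest, general growth blockers included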;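 further: wells of about 50 µL received 100 nL stock; 0% = vehicle wells and 100% = reference inhibitor wells; whole bacteria with a GFP reporter of the hypoxia response; strong numbers were not always called active; many hits fall short of the cut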
BJeLR lethal: kills HRASV12-expressing BJeLR cells | BJeLR (HRASV12) viability, CellTiter-Glo ATP luminescence, 48 h; reference of the scale not given here | AID 1554 | 300,000 tested, 0.17% active | inhibition, % (no concentration beside the values);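 active means replicate mean above 50%; inconclusive means above 50% but judged a plate artefact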;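 further: 50 nL library stock added to about 25 µL; numbers are from one replicate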
Mtb hypoxia inh growth: also measured in Mtb hypoxia inh; calls as there; growth inhibition, %; measured here: M. tuberculosis growth (absorbance);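 0% = vehicle and 100% = reference antibiotic; read after six days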
Starred values were filed as active, the others as inactive; ? = inconclusive; nt = not tested or not shown.

SMILES	Sa RN4220 lethal	Bead autofluor	PrP UTR inh	Sa ugtP lethal	Mtb hypoxia inh	Mtb hypoxia inh growth	BJeLR lethal
Cc1cc(C)c2c(N)c(C(=O)c3cccc(Cl)c3)sc2n1	2.5	2562	7	-32	14	1	5
Oc1cccc(C=NNC(=S)Nc2cccnc2)c1O	3.4	nt	nt	-6	10	0	nt
Cc1cc(N2CCCC2)nc(SCC(=O)c2ccccc2)n1	-7.6	2449	-29	2	nt	nt	-3
Cc1ncc(CN2CCCC(C(=O)c3cccc(Cl)c3)C2)s1 (configuration not stated)	6.9	5008	43	2	19	12	13
NC(=O)C(=O)N/N=C/c1c[nH]c2ccc(Br)cc12	nt	5116	-18	nt	nt	nt	5
COc1ccc(C(c2nnnn2CC2CCCO2)N2CCN(c3cccc(C)c3C)CC2)cc1 (configuration not stated)	-2.1	2481	-13	-3	nt	nt	-4
N#CC(C#N)=NNc1ccc(S(=O)(=O)N2CCCC2)cc1	8.0	2055	-3	-5	nt	nt	6
CN(C(=O)COC(=O)CN1C(=O)c2ccccc2C1=O)c1c(N)n(Cc2ccccc2)c(=O)[nH]c1=O	nt	4160	-4	nt	nt	nt	9
Cc1cccc(C)c1NC(=O)C(=O)NCC1CCCN1S(=O)(=O)c1ccccc1 (configuration not stated)	3.2	11818	-20	9	-3	-4	-2
O=C(CN1C(=O)NC2(CCCC2)C1=O)Nc1cc(Cl)ccc1Oc1ccccc1	0.1	3632	-10	0	10	-1	nt
CCCn1c(C)cc(C(=O)COC(=O)c2c(C)nn(-c3ccccc3)c2C)c1C	-2.5	2236	2	24	nt	nt	-5
CC(CC(=O)Nc1cccc(C(F)(F)F)c1)=NNC(=O)Cc1ccccc1	10.0	nt	nt	7	17	12	nt
CCOC(=O)c1cc(NC(=O)c2cccnc2)ccn1	0.2	3491	8	12	-7	-9	-6
O=C(C1CCN(c2nc(-c3ccccc3)nc3c2CCC3)CC1)N1CCC(O)CC1	0.7	?	4	6	-1	0	0
Cc1ccc(CNC(=O)c2cn(C3CCCCC3)c(=O)c3c2c2ccccc2n3C)o1	-3.5	3569	-13	-4	nt	nt	9
COc1ccc(OCc2nnc3n2N=C(c2ccccc2)C(CC(=O)O)S3)cc1 (configuration not stated)	nt	4134	-5	nt	nt	nt	-5
Cc1nc2c(=O)n(-c3cccc(C(F)(F)F)c3)nc(C)c2s1	3.7	3198	-1	3	2	2	-11
CCOc1c(Nc2ccccc2O)c(=O)c1=O	1.5	6211	-19	-3	15	8	9
CC(=O)Nc1cccc(C(=O)OC(C)C(=O)Nc2ccc(S(=O)(=O)N3CCCC3)cc2)c1 (configuration not stated)	nt	?	-4	nt	nt	nt	-4
O=C(CSc1nccc(=O)[nH]1)N1c2ccccc2CCc2ccccc21	5.6	12891	-10	3	17	12	-5
C/C(Cl)=C/Cn1c(N2CCCC2)nc2c1c(=O)[nH]c(=O)n2C	4.0	3739	-37	2	4	15	-5
CCOC(=O)CSc1nc(N(C)C)nc(N(C)C#N)n1	1.5	2437	-14	-1	nt	nt	-3
O=C(COc1ccccc1Cl)Nc1nc(-c2ccncc2)cs1	0.3	3582	-35	2	0	4	nt
CC(C)C(NC(=O)c1ccc(F)cc1)C(=O)NCC1CCCO1 (configuration not stated)	-0.7	6309	-5	4	-2	-5	-1
c1coc(CNc2ncnc3nc[nH]c23)c1	4.0	4887	-12	-1	-1	1	3
O=C(CN1CCCc2ccccc21)N/N=C/c1ccc(O)cc1O	nt	2613	-11	nt	nt	nt	-9
COc1ccccc1/C=N/NC(=O)CNC(=O)c1ccccc1	nt	3746	-3	nt	nt	nt	7
COc1ccc2nc(N3CCN(C(=O)c4ccc5ncsc5c4)CC3)sc2c1	-0.7	6414	-2	3	4	0	6
Cc1nn(CC2CC2)c(=O)n1-c1ccccc1	10	3857	-19	5	-5	6	-22
CN1CCN(NC(=O)c2cc(S(=O)(=O)N3CCOCC3)c(Cl)cc2Cl)CC1	0.3	2474	-10	3	14	4	6
O=C1C(Cl)=C(NCC2CCCO2)C(=O)N1c1ccccc1 (configuration not stated)	1.8	5108	-22	-1	0	5	4
Cc1cc(=O)oc2c3c(cc(OCC(=O)NCC(=O)O)c12)OC(C)(C)CC3	-1.4	3147	-20	4	-5	8	8
CCSc1nnc(N(CCC#N)CCC#N)s1	1.4	4478	-5	4	nt	nt	-7
Cc1nnc(NC(=O)CCSc2ccc(Cl)cc2)s1	2.3	2675	-57	5	2	0	-9
O=C1CCCCCC1C1(O)C(=O)Nc2ccc(Br)cc21 (configuration not stated)	5.6	8535	-20	1	12	6	-3
CC(C)N(C(=O)CSc1nnc(NC(=O)c2cccs2)s1)C(C)C	2.9	4246	-6	1	-16	-6	6

Looked up by structure from above:
SMILES	Sa RN4220 lethal	Bead autofluor	PrP UTR inh	Sa ugtP lethal	Mtb hypoxia inh	Mtb hypoxia inh growth	BJeLR lethal
N#CC(C#N)=NNc1ccc(S(=O)(=O)N2CCCC2)cc1	8.0	2055	-3	-5	nt	nt	6
Cc1ccc(CNC(=O)c2cn(C3CCCCC3)c(=O)c3c2c2ccccc2n3C)o1	-3.5	3569	-13	-4	nt	nt	9

The list goes on:
SMILES	Sa RN4220 lethal	Bead autofluor	PrP UTR inh	Sa ugtP lethal	Mtb hypoxia inh	Mtb hypoxia inh growth	BJeLR lethal
CCCCCc1nc2ccccc2c(=O)n1-c1ccccc1[N+](=O)[O-]	1.6	3491	-21	16	9	7	5
CCOC(=O)c1sc(NC(=S)NC(=O)c2ccccc2)nc1C	11	4291	-58	7	6	10	5
COC(=O)C1=C(C(=O)OC)C2Nc3ccccc3[C@@]23CC(C(=O)OC)N(C(=O)c2cc(C)oc2C)C3=N1 (some centres not stated)	6.7	nt	nt	5	13	10	nt
C=CCN(CC=C)C(=O)Nc1cc(OC)ccc1OC	4.2	3906	-8	10	9	-5	4
COCCCN=CC1=C(O)CC(c2ccccc2)CC1=O (configuration not stated)	-2.8	3643	-38	-7	-8	4	-2
COc1cc(F)c(S(=O)(=O)N2CCOc3ccccc32)cc1OC	-0.9	2937	-13	-9	-6	-10	4
Cn1c(CSCc2ccc(F)cc2)nnc1SCC(=O)Nc1cccc(C(=O)O)c1	4.0	5135	-13	8	0	5	-3
O=c1[nH]c(NCCO)nnc1Cc1ccc(Cl)cc1	1.2	4119	-15	15	15	5	-8
Cc1ccccc1NC(=O)CN1C(=O)c2cccnc2Oc2ccc(Cl)cc21	-1.7	6288	-4	1	-1	3	-7
CCN1CCN(Cc2ccc(NC(=O)c3ccc(C)c(NC(=O)c4ccnnc4)c3)cc2C(F)(F)F)CC1	0.1	3208	-10	-10	10	6	-12
O=C1NC(Cc2ccccc2)C(=O)N2C1C[C@]1(Br)c3ccccc3N(S(=O)(=O)c3ccc(F)cc3)C21 (some centres not stated)	14	nt	nt	-6	-7	0	nt
Cc1ccc2nc(NC(=O)CSCc3ccccc3)sc2c1	1.5	3486	-21	8	nt	nt	-1
CC12C(=O)N(Cc3ccco3)C(=O)C1C1c3ccccc3C2c2ccccc21 (configuration not stated)	5.8	2917	-13	6	nt	nt	4
COc1ccc2nc(N=C(N)NC(=O)N3c4ccccc4Sc4ccccc43)nc(C)c2c1	12	nt	nt	-21	-2	10	nt
CC1CCCN(C(=O)COc2ccc(Nc3ccccc3)cc2)C1 (configuration not stated)	-3.2	4373	-15	-11	-20	2	2
C[C@@H]1CN([C@H](C)CO)C(=O)c2cccc(NC(=O)Nc3ccc(F)cc3)c2O[C@H]1CN(C)C(=O)Nc1ccc(C(F)(F)F)cc1	-15	4004	-17	1	3	16	nt
CCCOC(=O)c1ccc(Oc2c(-c3ccc(O)cc3O)n[nH]c2C)cc1	37	3089	-13	48	-2	2	-8
O=C(NC1CCCCC1)NC1(C(=O)N2CCN3CCCC3C2)CCCCC1 (configuration not stated)	-0.1	4913	0	3	8	18	2
Cc1ccccc1NC(=O)NNC(=O)c1ccc2ccccc2c1	0.8	5179	-23	2	11	3	12
Oc1ccc(N2CCN(C(c3ccccn3)c3nnnn3C3CCCC3)CC2)cc1 (configuration not stated)	9.7	9483	-19	1	0	1	1
O=C1NN(c2ccccc2)C(=O)/C1=C\c1ccccc1OCC(=O)N1CCOCC1	1.5	21121*	-19	4	4	4	-8
CC(=O)C(C(C)=O)c1c(Cl)c(O)c(O)c2c(C(=O)c3ccccc3)coc12	nt	2424	-1	nt	nt	nt	-3
COc1ccccc1C(C)NC(=O)c1ccc(S(=O)(=O)NCc2ccco2)cc1 (configuration not stated)	0.4	3000	-18	0	-3	-3	nt
O=C(O)c1ccccc1NC(=O)C(Cc1ccccc1)N1C(=O)c2ccccc2C1=O (configuration not stated)	-0.4	3695	-12	3	6	-9	-2
COc1ccc(N(C)S(=O)(=O)c2cccc(C(=O)N3CCN(Cc4ccc5c(c4)OCO5)CC3)c2)cc1	0.8	4908	-3	5	0	-14	nt
CN1CCN(C(=O)C2=C[C@@H](c3ccc4c(c3)OCO4)C[C@@H](OCc3ccc(CO)cc3)O2)CC1	nt	4449	3	nt	nt	nt	-7
O=[N+]([O-])c1ccc(CN2CCOCCOCCOCC2)cc1	4.5	10570	-16	5	-3	0	0
COc1ccc(COCC(O)CN2CCC(C(N)=O)CC2)cc1 (configuration not stated)	2.1	4677	-25	7	-3	-3	-4
CCCCCCC1C(=NNC(=O)c2ccccc2)CCC1C(=O)OC (configuration not stated)	2.4	nt	nt	-2	-7	8	nt
O=C(NC1CC1)c1ccc(S(=O)(=O)NC2CCCCCC2)cc1	1.0	6078	-13	0	1	8	-2
CCOC(=O)c1c(NC(=O)c2ccc(S(=O)(=O)N(C)CC3CCCO3)cc2)sc2c1CCN(C)C2 (configuration not stated)	2.3	7003	-18	-9	15	35	3
O=C(c1ccc2c(c1)OCO2)N1CCC(Cc2ccccc2)CC1	10	3193	-18	6	4	10	5
O=C(Cc1ccccc1[N+](=O)[O-])OCC(=O)c1ccccc1Br	7.1	nt	nt	4	10	9	nt
O=C(C1CC(=O)N(c2ccc(F)c(Cl)c2)C1)N1CCC2(CC1)OCCO2 (configuration not stated)	1.7	4725	-49	-4	2	-2	2
O=C(NC(Cc1ccccc1)C(=O)O)c1ccc(S(=O)(=O)N2CCCCC2)cc1 (configuration not stated)	7.5	22876*	-4	9	6	3	-7
Cc1nc(N2CCC(C(N)=O)CC2)c2nnn(Cc3ccccc3)c2n1	1.7	21409*	1	6	9	2	1
Cc1onc(-c2c(Cl)cccc2Cl)c1C(=O)N1C=CC(C(F)(F)F)=NCC1	-2.9	8934	5	-5	-13	3	8
O=C(O)CCNS(=O)(=O)c1ccccc1C(F)(F)F	5.9	3918	-11	5	14	21	-8
O=C(Nc1ccc(Oc2ccc(NC(=O)C3CCCO3)cc2)cc1)C1CCCO1 (configuration not stated)	9.1	3019	-8	6	7	7	7
O=C(N/N=C/c1ccc(-c2cccc([N+](=O)[O-])c2)o1)c1ccc([N+](=O)[O-])cc1	nt	3318	-6	nt	nt	nt	-18
CC(C)(C)C(=O)NC(NC(=O)C(C)(C)C)c1ccc([N+](=O)[O-])cc1	3.1	10297	-20	7	4	1	6
CC(C)(O)C#Cc1ccc(CN2CCN(Cc3ccccc3)C(CCO)C2)s1 (configuration not stated)	9.5	4192	-5	3	5	4	-1
CCn1c(Nc2ccccc2Cl)nc2ccccc21	4.4	3384	-17	29	11	3	7
CCOc1ccc(N(CC(=O)NCCc2ccccc2)C(=O)CCC(=O)Nc2nccs2)cc1	nt	4184	-9	nt	nt	nt	-9
O=C(O)c1cc(-c2ccccc2Cl)n(-c2ccccc2)n1	-0.9	3714	-14	6	6	-4	0
CCNc1nc(NCC)nc(NN=Cc2ccc(OC)cc2)n1	2.0	nt	nt	7	-4	0	nt
Cc1ccc(NC(=O)Nc2c(C)n(C)n(-c3ccccc3)c2=O)cc1	0.3	3481	-15	2	11	0	-2
C=C1CCN([C@@H](C)C(=O)NCCCCCC)S(=O)(=O)c2ccccc21	nt	2865	-6	nt	nt	nt	-1

A few values from the entries so far:
`Cc1ccc(NC(=O)Nc2c(C)n(C)n(-c3ccccc3)c2=O)cc1` in PrP UTR inh shows -15
`O=C(Nc1ccc(Oc2ccc(NC(=O)C3CCCO3)cc2)cc1)C1CCCO1` (configuration not stated) in BJeLR lethal shows 7
`CCNc1nc(NCC)nc(NN=Cc2ccc(OC)cc2)n1` in Mtb hypoxia inh growth shows 0
`O=C(N/N=C/c1ccc(-c2cccc([N+](=O)[O-])c2)o1)c1ccc([N+](=O)[O-])cc1` in Bead autofluor shows 3318
`CC(C)(O)C#Cc1ccc(CN2CCN(Cc3ccccc3)C(CCO)C2)s1` (configuration not stated) in Sa ugtP lethal shows 3
